Bioassay records as filed in PubChem.
TRPML1 blocker: human mucolipin-1 channel inhibition; Q9GZU1; activity change, negative = inhibition, % (no concentration beside the values); TRPML1-inducible cells, Ca2+ dye fluorescence, FDSS; stronger effect = lower value; inhibition of EC80 agonist-evoked calcium signal; 390,000 compounds, 0.02% hits; AID 624415; in the data active means activity change below about -50%; inconclusive means about -30% to -50%; inactive means above about -30%;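 note: stimulus is agonist 54-4 at its EC80 concentration; % is set by controls: 0 for no effect and ±100 for the full control effect; compound concentration not given in the record; the text of the record puts the active cut at -80%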
Target sequence (Q9GZU1 whole entry, looked up): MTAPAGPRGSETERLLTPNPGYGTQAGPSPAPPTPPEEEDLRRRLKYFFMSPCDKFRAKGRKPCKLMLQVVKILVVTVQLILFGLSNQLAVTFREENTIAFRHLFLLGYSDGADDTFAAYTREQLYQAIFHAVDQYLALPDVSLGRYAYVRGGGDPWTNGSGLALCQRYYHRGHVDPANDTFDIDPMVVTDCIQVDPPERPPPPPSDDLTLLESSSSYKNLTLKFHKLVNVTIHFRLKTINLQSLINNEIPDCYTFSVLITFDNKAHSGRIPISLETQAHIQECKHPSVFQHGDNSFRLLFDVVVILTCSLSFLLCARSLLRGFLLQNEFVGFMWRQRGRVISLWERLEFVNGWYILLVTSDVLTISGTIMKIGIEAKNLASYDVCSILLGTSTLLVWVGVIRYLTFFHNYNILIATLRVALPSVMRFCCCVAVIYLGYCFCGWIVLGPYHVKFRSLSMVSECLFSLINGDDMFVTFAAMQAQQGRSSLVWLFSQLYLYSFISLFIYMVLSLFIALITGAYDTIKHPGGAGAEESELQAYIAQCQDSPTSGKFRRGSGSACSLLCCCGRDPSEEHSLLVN
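Calcium fluorescence in TRPML1-DL cells induced overnight with Tet: a 110 s read after compound pin addition, then a 110 s antagonist read after challenge with 54-4 at 4 uM final (EC80).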
D2 ag: human D2 receptor agonism in beta-arrestin assay; P14416; DiscoveRx PathHunter D2 beta-arrestin, luminescence, 90 min; 100% = 57 uM dopamine signal; activation, % (test concentration not listed); 360,000 compounds, 0.084% hits; in the data active = activation above about 40%; inconclusive = about 15% to 40%; inactive = below about 15%; note: compound concentration not given in the record; the text of the record calls up to 30% inactive
Target sequence (P14416 whole entry, looked up): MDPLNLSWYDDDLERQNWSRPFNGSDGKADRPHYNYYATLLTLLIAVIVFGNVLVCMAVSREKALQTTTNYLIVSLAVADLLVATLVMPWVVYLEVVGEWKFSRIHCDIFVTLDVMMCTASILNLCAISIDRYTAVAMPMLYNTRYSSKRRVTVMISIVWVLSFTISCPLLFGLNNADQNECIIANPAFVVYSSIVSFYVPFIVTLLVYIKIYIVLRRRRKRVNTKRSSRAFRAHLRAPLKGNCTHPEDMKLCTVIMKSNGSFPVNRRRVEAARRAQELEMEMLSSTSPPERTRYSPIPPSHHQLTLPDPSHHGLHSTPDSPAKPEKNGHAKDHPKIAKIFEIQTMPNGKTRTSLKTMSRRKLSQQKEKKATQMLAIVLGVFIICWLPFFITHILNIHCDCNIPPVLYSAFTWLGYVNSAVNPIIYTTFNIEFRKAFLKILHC
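DiscoveRx PathHunter D2 beta-arrestin cells (2,100/well) attached overnight, then compound-stimulated 90 min at 37 C in HBSS/10 mM HEPES/0.1% Tween-20 buffer; beta-galactosidase complementation read by luminescence after 1 h at ambient temperature. Dopamine 57 uM final (EC100) as control.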
CtBP-E1A inh: blocks the CtBP interaction with E1A; AlphaScreen GST-E1A/His-CtBP binding, 1536-well; stronger effect = lower value; control for the full effect not named in the record; activity change, % (concentration not given with the values); 340,000 compounds, 0.49% hits; in the data active means activity change below about -65%; inconclusive means about -30% to -65%; inactive means above about -30%; note: % is set by controls: 0 for no effect and ±100 for the full control effect
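Protein mix (5X: 125 nM each GST-E1A, His-CtBP) was incubated with pinned compound 2 h at 37 deg C in dark, in 50 mM Tris pH 8.0 buffer with 300 mM NaCl. Glutathione donor and nickel acceptor beads followed; AlphaScreen signal read after 1 h.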
TRPML1 agonist: agonists of human TRPML1 channel. TRPML1-expressing cells, Ca2+ dye fluorescence, FDSS; host cell line not named in the record; reference of the full effect not given here. 410,000 compounds, 0.12% hits. Q9GZU1. AID 624414. activation, % (no concentration beside the values); in the data active = activation above about 50%; inconclusive = about 30% to 50%; inactive = below about 30%; note: 0% is about no effect; the text of the record puts the active cut at 80%
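In this qHTS format, compounds were pin-transferred onto Ca8-dye-loaded TRPML1-DL cells induced with Tet overnight, and intracellular Ca2+ fluorescence was recorded kinetically for 110 s after a 10 s baseline. A subsequent 4uM final 54-4 (EC80) addition followed by a second 110 s read served as the antagonist phase.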
PINK1 expr mod: changes PINK1 expression | PINK1 immunofluorescence, high-content cytometry, 24 h | Potency, µM (series often up to 76.6 µM), for inactives: at the highest dose activation (PINK1 increase), most hits filed as activators | 410,000 compounds, 0.2% hits | AID 624263; active = well fitted activation curve with a large enough effect; inconclusive = small, poorly fitted or top-dose-only effect; inactive = flat fitted curve, though single readings scatter; cell line not stated here;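 note: potency is the fitted concentration of half-maximal effect; % of control where 0% means no effect; nearly all actives have a fitted effect of over 65% in size; a mitochondrial uncoupler was the plate control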
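PINK1 protein level read as immunofluorescence by microplate cytometer in a fixed, stained stable cell line after 24 h exposure to five compound concentrations, with CCCP as control.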
Six1-Eya2 inh: blocks human Six1 binding to Eya2; AlphaScreen GST-Six1/His-Eya2 binding, biochemical; stronger effect = lower value; control for the full effect not named in the record; activity change, % (concentration not given with the values); Q15475+O00167; AID 651725; 360,000 compounds, 0.56% hits; in the data active = activity change below about -65%; inconclusive = about -30% to -65%; inactive = above about -30%; note: % is set by controls: 0 for no effect and ±100 for the full control effect
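AlphaScreen with GST-Six1 and His-Eya2 (5X mix: 250 nM and 500 nM), glutathione donor and nickel acceptor beads; buffer 50 mM Tris pH 8.0, 300 mM NaCl, 1 mM TCEP; 1 h at 37 C in the dark.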
Starred values were filed as active, the others as inactive; ? = inconclusive; . = no result given; & = joins results of further samples; [ ] = another dose, or the depositor's remark.

SMILES | TRPML1 blocker | D2 ag | CtBP-E1A inh | TRPML1 agonist | PINK1 expr mod | Six1-Eya2 inh
O=C(CCC(=O)OCc1ccc(Br)cc1)Nc1ccccc1 | -12 | 1.7 | 5 | 0.0 | -0.8% | 2
Cc1ccc(C2CC(c3cccc(Cl)c3)n3nc(N)nc3N2)cc1 (stereo not given) | 10 | -2.9 | 2 | 3.3 | 4.4% | -2
CCOc1ccc(-c2nc(CSCC(=O)N3CCN(C(=O)c4ccco4)CC3)c(C)o2)cc1 | 1 | -1.6 | 0 | 2.1 | -0.9% | -4
CC(=O)NC1C(Oc2ccccc2C)OC2COC(c3ccco3)OC2C1O (stereo not given) | -3 | -5.3 | -5 | -0.5 | 2.1% | -15
COC(=O)/C(C#N)=C1/C=Cc2ccccc2N1C | 17 | -4.7 | 0 | -0.1 | -1.6% | -8
CCCCN(C)C(=O)CC(NS(=O)(=O)c1ccc(NC(C)=O)cc1)C(C)C (stereo not given) | 12 | -0.1 | 12 | -0.9 | 1.6% | 8
CCOc1ccccc1NC(=O)c1ccccc1NS(C)(=O)=O | 0 | 1.9 | 4 | 0.6 | ? | 5
COc1ccc(Cl)cc1NC(=O)COC(=O)Cc1cccs1 | 20 | 4.1 | -6 | 1.3 | -1.6% | 0
O=C(CCNS(=O)(=O)c1ccccc1Cl)OCc1nnc(-c2ccccc2Cl)o1 | 25 | 9.5 | -27 | 0.6 | -1.4% | -21
Cn1c(CNC(=O)CNC(=O)c2ccccc2F)cc(=O)n(C)c1=O | 3 | -1.7 | 10 | 0.1 | 0.6% | 4
O=C(CN1CCCC1)Nc1ccc(OCc2ccccc2)cc1 | 4 | 4.4 | . | 0.5 | -1.7% | 2
COc1ccc(-c2cn3nc(N4CCC(C(=O)NCc5ccccc5F)CC4)sc3n2)cc1 | 21 | . | . | 1.0 | 0.0% | .
CC(C)C(c1nnnn1C1CCCC1)N(C)C1CCCCC1 (stereo not given) | 14 | -4.5 | 6 | 5.7 | 0.8% | -1
CC(O)[C@H]1CNC(=O)C(=O)N1CCc1cccc(F)c1 (stereo not given in full) | 18 | -0.9 | 6 | -0.3 | -0.8% | 1
O=C(Nc1ccc(Oc2cccnc2)cc1)C1CCCCN1Cc1ccc(CO)o1 (stereo not given) | 29 | 2.0 | -1 | 0.3 | 3.5% | 0
CCOC(=O)c1c(NC(=O)CN2CCCCC2)sc(CN(C)C)c1-c1ccccc1 | 5 | 4.8 | 0 | 0.4 | 2.3% | 113
CN1c2ccccc2N(C)C1(C)c1cccc2ccccc12 | -7 | 2.2 | -28 | 0.5 | ? | ?
Cc1ccc(CN2CCN(c3ccccn3)CC2)s1 | 1 | 65* | -10 | -0.3 | ? | -2
CCCS(=O)(=O)N1CCCC(C(=O)NCCCN2CCN(c3cccc(Cl)c3)CC2)C1 (stereo not given) | -13 | 6.9 | -7 | -0.3 | -1.8% | 4
CC1(c2cccc(Br)c2)NC(=O)N(CC(=O)NC2CCCCC2)C1=O (stereo not given) | 4 | 2.0 | 10 | 0.7 | 1.1% | 4
CNC(=O)COC(=O)c1cccnc1SC | -7 | 0.1 | 14 | -0.2 | 0.4% | 21
O=C(/C=C/c1ccccc1F)c1cccc([N+](=O)[O-])c1 | -6 | 5.0 | . | 0.0 | -0.5% | -5
C/C(=N\NC(=O)c1c[nH]c2ccccc12)c1ccccn1 | 14 | -1.7 | -93* | -0.2 | -1.4% | -93*
C=CCNc1sc(C(=O)C2CC2)c(N)c1C#N | -17 | 0.3 | 4 | -1.2 | 0.6% | -6
Cc1cc(C)n(CCCNC(=O)c2ccc(S(=O)(=O)NCc3ccco3)cc2)n1 | -1 | -1.6 | 6 | 4.0 | 1.4% | 3

New compounds follow
SMILES | TRPML1 blocker | D2 ag | CtBP-E1A inh | TRPML1 agonist | PINK1 expr mod | Six1-Eya2 inh
CCC/C(=N\NC(=O)c1cccc(C)c1)c1ccccc1 | 45 | -0.3 | -1 | 0.3 | 0.3% | -7
O=C(CCn1c(=O)c2cccn2c2cccnc21)N1CCN(c2cccc(Cl)c2)CC1 | -1&0 | -7.3 | 1 | -0.2&5.0 | -0.9%&-0.7% | -1
C/C(N)=C(/C#N)C(=O)COC(=O)c1ccccc1O | -6 | -1.0 | 12 | -0.6 | -1.5% | 1
CCC(CC)c1nnc(NC(=O)c2cccnc2SC)s1 | 0 | -3.7 | 0 | -0.8 | 1.9% | -7
COc1ccccc1CCNC(=O)c1ccccc1SCC(=O)N1CCCC1 | -5 | 1.0 | -2 | 1.5 | 0.1% | -2
CC(=O)Nc1ccc(S(=O)(=O)NNC(=O)c2cccc(Cl)c2)cc1 | -5 | -0.4 | 0 | 0.1 | -0.9% | -1
NC(=O)CSc1nnc(-c2cccc(S(=O)(=O)N3CCOCC3)c2)n1C1CCCCCC1 | -6 | -3.9 | 2 | -0.4 | 3.5% | -4
COc1ccc(C(=O)n2nc(N)c3cc4ccc(C)cc4nc32)cc1OC | 11 | . | . | -1.0 | -1.3% | .
Cc1ccc(-c2csc(NCCc3nc4cc(Cl)c(Cl)cc4n3CCCO)n2)cc1 | -6 | 4.4 | 0 | -0.6 | 5.4% | 13
O=C(NCc1nnnn1-c1ccc(F)cc1)C1CC(=O)N(c2ccc(F)cc2)C1 (stereo not given) | 22 | -3.1 | 8 | 0.1 | 1.9% | -17
NS(=O)(=O)c1ccc(CCNC(=O)CSc2ccc3ccccc3c2)cc1 | 4 | 7.2 | 5 | -0.9 | -1.5% | -3
Cc1ccc(SCc2ccc(C(=O)Nc3cccc([N+](=O)[O-])c3)cc2)cc1 | -21 | 4.6 | 32 | 1.5 | 10%[38.3 µM] | -3
CCC1CN(C(=O)N2CCC(C(=O)NCc3cccc(F)c3)CC2)c2ccccc2O1 (stereo not given) | -12 | -5.2 | -11 | -0.5 | 3.8% | 7
c1nc(NCC2CCCO2)c2[nH]cnc2n1 (stereo not given) | 9 | -3.9 | -4 | 2.4&-0.2&-0.5 | -1.2%[38.3 µM] | -10
NC(=O)c1c(NC(=O)c2cccnc2)sc2c1CCCC2 | -10 | -0.6 | -30 | 0.6 | 1.8% | -5
Cc1ccc(NC(=O)N/C=C/c2ccco2)cc1 | -15 | -1.7 | 0 | 2.1 | -1.1% | -16
CN(C)C(=O)c1cn(-c2ccccc2)nc1-c1cc2ccccc2o1 | 3 | 1.1 | -2 | 0.4 | 0.9% | 0
O=C(NCc1ccco1)c1cc(-c2ccccc2)nc2ccccc12 | 9 | -1.7 | -6 | 0.6 | 1.2% | -13
Cc1ccc(Cl)cc1N1CCN(C(=O)c2ccc(NC3=NC4CS(=O)(=O)CC4S3)cc2)CC1 (stereo not given) | 13 | 0.1 | 9 | 0.8 | 0.3% | -6
COc1ccc(OC)c(CNc2c(C=O)c(=O)[nH]c3ccccc23)c1 | 0 | 0.4 | 1 | -0.4 | -0.6% | -23
CCn1c(=S)sc2c(=O)n(CC(=O)NC(C)CCc3ccccc3)c(C)nc21 (stereo not given) | 34 | -0.9 | 3 | 0.0 | 3.7% | 5
CC(C)c1ccc(NC2CCCN(C(=O)CN3CCCCC3=O)C2)cc1 (stereo not given) | 0 | -2.2 | -19 | -0.2 | 1.0% | -16
NC(=S)N/N=C/c1ccc(-c2cc(Cl)ccc2Cl)o1 | 27 | -3.6 | ? | 3.2 | -2.0%[38.3 µM] | -20
CC(C)OC(=O)c1cccc2c1C(=O)c1ccccc1-2 | 68 | 0.2 | 0 | 2.4 | 2.8% | -13
CNS(=O)(=O)c1cc2c3c(cccc3c1)C(=O)NC2=O | -20 | -8.6 | . | 2.6 | -2.1% | -10

Not a retest: entries from further up.
SMILES | TRPML1 blocker | D2 ag | CtBP-E1A inh | TRPML1 agonist | PINK1 expr mod | Six1-Eya2 inh
COc1ccc(OC)c(CNc2c(C=O)c(=O)[nH]c3ccccc23)c1 | 0 | 0.4 | 1 | -0.4 | -0.6% | -23
CCn1c(=S)sc2c(=O)n(CC(=O)NC(C)CCc3ccccc3)c(C)nc21 (stereo not given) | 34 | -0.9 | 3 | 0.0 | 3.7% | 5
CC(C)c1ccc(NC2CCCN(C(=O)CN3CCCCC3=O)C2)cc1 (stereo not given) | 0 | -2.2 | -19 | -0.2 | 1.0% | -16
NC(=S)N/N=C/c1ccc(-c2cc(Cl)ccc2Cl)o1 | 27 | -3.6 | ? | 3.2 | -2.0%[38.3 µM] | -20
CC(C)OC(=O)c1cccc2c1C(=O)c1ccccc1-2 | 68 | 0.2 | 0 | 2.4 | 2.8% | -13
CNS(=O)(=O)c1cc2c3c(cccc3c1)C(=O)NC2=O | -20 | -8.6 | . | 2.6 | -2.1% | -10

(more compounds)
SMILES | TRPML1 blocker | D2 ag | CtBP-E1A inh | TRPML1 agonist | PINK1 expr mod | Six1-Eya2 inh
NC(=O)C[C@H](N)c1cn([C@@H](CC(N)=O)C(=O)N2CCNCC2)nn1 | 1 | -1.3 | -14 | -0.3 | 0.4% | -8
NC(=O)Cn1cc(/C=N\NS(=O)(=O)c2ccccc2)c2ccccc21 | 26 | -0.7 | -1 | 0.9 | 0.6% | -3
O=Cc1c(N2CCOCC2)nc2ccccn2c1=O | 18 | 1.4 | -28 | 0.6 | -1.7% | 3
COc1ccc(N2CC(NC(=O)c3ccc(S(=O)(=O)N4CCOCC4)cc3)CC2=O)cc1 (stereo not given) | -21 | . | . | 0.6 | -0.4% | .
COCC(=O)N1CCC(n2nccc2NC(=O)CCOc2ccccc2)CC1 | -2 | -0.2 | . | 2.0 | 0.0% | 5
CCN1CCN(c2cc(C)c3cc(NC(=O)c4cccc(C(F)(F)F)c4)ccc3n2)CC1 | 28 | . | . | -0.2 | 3.2% | .
Cc1ccccc1-n1c(=O)c2c3c(sc2n2cnnc12)CCCC3 | 7 | . | . | -0.8 | 1.5% | .
Cc1cc2oc(=O)cc(CN3CCN(S(=O)(=O)c4cccs4)CC3)c2cc1C(C)C | -3 | 0.0 | -19 | 1.0 | -0.7% | 2
COc1cc(/C=C\C(=O)O)cc(S(=O)(=O)N2CCCCCC2)c1OC | -2 | -2.4 | 3 | -0.5 | 1.8% | 2
Cc1ccc(S(=O)(=O)Nc2c(C)nc3nc(C)[nH]n3c2=O)cc1 | 0 | -1.9 | -13 | 0.7 | -1.7% | 1
Cc1cc(C)n(-c2ccc(S(=O)(=O)N3CCOCC3)cc2[N+](=O)[O-])n1 | -7 | -1.4 | 1 | -0.7 | -0.2% | 13
